Compound activity (PubChem BioAssay)
VDR inhibitor – Inhibitors of the vitamin D receptor (VDR): qHTS | VDR-SRC2-3 peptide fluorescence polarization, 2 h | AID 504847, 2011 | Potency, µM, for inactives: max response, negative = inhibition, most hits filed as inhibitors | hit rate 0.93% among 400,000; active = well fitted inhibition curve with a large enough effect; inconclusive = small, poorly fitted or top-dose-only effect, or another doubt; inactive = no such curve, though single readings can be large or run the other way; note: series mostly up to about 120 µM
Target sequence (P11473 whole entry, looked up): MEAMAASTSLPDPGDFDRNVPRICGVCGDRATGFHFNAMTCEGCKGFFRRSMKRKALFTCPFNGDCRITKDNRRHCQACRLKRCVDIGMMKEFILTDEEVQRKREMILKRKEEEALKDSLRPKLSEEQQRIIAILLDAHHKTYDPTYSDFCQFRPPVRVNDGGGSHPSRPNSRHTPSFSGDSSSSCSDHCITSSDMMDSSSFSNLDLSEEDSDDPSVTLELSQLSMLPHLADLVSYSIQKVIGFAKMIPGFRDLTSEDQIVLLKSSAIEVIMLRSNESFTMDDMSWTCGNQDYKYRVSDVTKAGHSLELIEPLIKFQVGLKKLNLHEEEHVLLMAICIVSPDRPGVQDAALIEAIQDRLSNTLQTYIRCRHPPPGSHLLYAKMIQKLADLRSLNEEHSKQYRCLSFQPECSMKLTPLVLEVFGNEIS
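VDR–SRC2-3 interaction, FP format. Cmpds 23 nl via pintool, brief spin, 2 h ambient incubation.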
* marks the source's active call; other numbers are inactive results; ? = inconclusive; & = joins results of further samples. % is set by controls: 0 for no effect and ±100 for the full control effect; potency is the fitted concentration of half-maximal effect.

VDR inhibitor | structure
-13.0% | CC1CC(C)CN(S(=O)(=O)c2ccccc2[N+](=O)[O-])C1 (centres undefined)
15.1% | CC(C)(C)c1cc(CCC(=O)NCc2ccccn2)cc(C(C)(C)C)c1O
-6.2% | CN(C)/C=N/c1c(C(=O)NCc2ccccc2)nnn1Cc1ccccc1
0.4% | CNC(=O)Nc1cccc(-c2ccnc(C)n2)c1
20.6% | CCC(C)NS(=O)(=O)c1ccc(NC(=O)c2cccs2)cc1 (centres undefined)
1.2% | Cc1cc(C(=O)Nc2sc(C)c(-c3ccc(F)cc3)c2C(N)=O)no1
11.6% | O=C(Nc1ccc2oc(Cc3ccc(Cl)cc3)nc2c1)c1cccnc1
12.3% | Cc1ccc(C)c(N(C)C(=O)C2CCN(c3ncnc4c3nc3n4CCCCC3)CC2)c1
-18.4% | CCN(CC)C(=O)c1sc2nc(-c3ccccc3)ccc2c1N
-6.2% | O=Cc1cc(N=Nc2ccccc2Cl)ccc1O
10.8% | Cc1c(NC(=O)C2CCCN2S(=O)(=O)c2ccc(Cl)cc2)c(=O)n(-c2ccccc2)n1C (centres undefined)
-1.6% | COC(=O)c1cccc(COC(=O)CNC(=O)c2ccco2)c1
-9.0% | COc1cnc(-c2ccccc2)nc1Oc1cccc(C)c1
1.5% | Cc1ccc(NC(=O)Cn2cc(C(F)(F)F)cc(Cl)c2=O)cc1Cl
-3.9% | Cc1ccc(SCC(=O)OCC(=O)NC2CCCCCCC2)cc1
9.3%&-6.1% | COc1cccc(C(=O)NCCN2CCN(c3ccc(Cl)cc3)CC2)c1
10.0% | CC(=O)Nc1ccc(NC(=O)c2cc(-c3ccc(C)cc3O)n[nH]2)cc1
-2.2% | CSc1nc(N)n2nc(-c3ccccc3)cc2n1
-10.0% | CCc1c(C(=O)NC2CCCCC2)[nH]c(C)c1C(C)=O
-11.9% | CCN(CC(=O)Nc1c(F)cccc1F)C(=O)c1ccc(S(=O)(=O)NCc2ccco2)cc1
7.2% | O=C(Nc1ccccc1F)NC1CCCCCCC1
6.0% | CC(C)(C)C(=O)N1CCN(c2nc3ccccc3s2)CC1
-0.6% | CO[C@@]12[C@H](COC(N)=O)C3=C(C(=O)C(C)=C(N)C3=O)N1C[C@@H]1N[C@@H]12
13.9% | O=C(O)CC1(CC(=O)Nc2ccccc2N2CCOCC2)CCCC1
2.0% | CCCCN(C(=O)c1cccc(S(=O)(=O)N(C)c2ccc(C)cc2)c1)c1c(N)n(CC(C)C)c(=O)[nH]c1=O
-7.7% | CCCC/C(=N\NC(=O)c1ccc(Br)o1)c1ccccc1
-0.4% | COc1cc(-c2nnc(SCC(=O)NCc3ccccc3Cl)o2)cc(OC)c1OC
-11.5% | Cc1cc(NCCCO)n2c(nc3ccccc32)c1C#N
6.3% | COCCCNC(=O)c1oc2c(c1C)-c1nn(Cc3cccc(Cl)c3)cc1CC2
-15.7% | O=C(O)CCN1c2ccccc2Sc2ccccc21
20.2% | CC(O)C(NS(=O)(=O)c1ccc(Cl)cc1)C(=O)OCC(=O)c1c[nH]c2ccccc12 (centres undefined)
-1.0% | CCn1cnc2c(=O)oc3ccc(S(=O)(=O)N4CCN(c5cc(C)ccc5C)CC4)cc3c21

Ordered by number of heavy atoms (low to high): some entries from above.
VDR inhibitor | structure
-15.7% | O=C(O)CCN1c2ccccc2Sc2ccccc21
-11.5% | Cc1cc(NCCCO)n2c(nc3ccccc32)c1C#N
6.3% | COCCCNC(=O)c1oc2c(c1C)-c1nn(Cc3cccc(Cl)c3)cc1CC2

Further structures.
VDR inhibitor | structure
0.0% | O=C(/C=C/c1ccco1)NC(=S)Nc1ccccc1N1CCOCC1
10.1% | COc1ccc(Nc2ncnc3c2cnn3-c2ccc(C)cc2)cc1Cl
8.6% | CCOc1ccccc1Nc1sc(C(=O)c2ccc(Cl)cc2)c(N)c1S(=O)(=O)c1ccccc1
-0.3% | CCC(Oc1ccc(Br)cc1)C(=O)N1CCN(c2ncccn2)CC1 (centres undefined)
1.9% | COc1ccc(NS(=O)(=O)c2cc(NC(=O)CCSc3ccccc3)ccc2OC)cc1
-9.3% | Cc1cccnc1NC(=O)CN1C(=O)NC(C)(c2ccc3ccccc3c2)C1=O (centres undefined)
-0.6% | CCOc1ccc(C(=O)NC(=S)Nc2cc(C)ccn2)cc1[N+](=O)[O-]
-2.7% | Cc1ccc(-c2nc3[nH]c(=O)cc(NC(=O)c4cccs4)n3n2)cc1
6.7% | COc1cc2c(cc1NC(=O)CSc1nnc(Cc3cccs3)n1C)oc1ccccc12
-16.6% | CCc1ccc(OCC(=O)NNCC(=O)Nc2ccc(OC)cc2)cc1
5.7% | Cc1noc(C)c1CN1C(=O)NC(Cc2ccccc2)(Cc2ccccc2)C1=O
-0.4% | COc1cccc(-c2nn(C)c3sc(C(=O)Nc4ccc5c(c4)OCCO5)cc23)c1
15.8µM* | NC(=O)c1cc[n+](CC2=C(C(=O)[O-])N3C(=O)[C@@H](NC(=O)Cc4cccs4)[C@@H]3SC2)cc1
11.0% | Nc1cccc(NC(=O)c2ccco2)c1
-0.3% | COC(=O)C(OC(=O)c1ccc(OC)cc1)C(=O)OC
-7.9% | CCCc1cc(-c2n[nH]c(=S)n2-c2cccc(C)c2)cs1
1.6% | CCOc1ccc(CN(Cc2ccco2)S(=O)(=O)c2ccc(-n3cnnn3)c(OC)c2)cc1
9.5% | O=C(CCCn1c(SCC(=O)c2ccc(F)cc2)nc2ccccc2c1=O)NCc1ccccc1
-1.7% | C=CCN(CC=C)S(=O)(=O)c1ccc(C(=O)Nc2nnc(CSC)o2)cc1
-0.7% | CCc1ccc(C(c2ccccc2)c2c(C)[nH]c3ccccc23)s1 (centres undefined)
? | COc1cccc(C(=O)CSc2nnnn2C)c1
7.8% | C/C(=N\NC(=O)c1nc2ccccn2c1C)c1ccc2c(c1)OCO2
-20.7% | O=C(CN1CCCCCC1)Nc1ccc([N+](=O)[O-])cc1Cl
-11.1% | C/C=C/c1ccc(OC(C)=O)c(OC)c1
-1.5% | Cc1ccc2c(c1)-c1c(cnn1CC(=O)Nc1ccccc1N1CCN(C)CC1)CO2
-7.6% | CCOc1cc(N2CCOCC2)c(OCC)cc1NC(=O)COC(=O)CCOc1cc(C)ccc1C
-0.9% | COc1ccc(O)c(/C=N/NC(=O)c2ccc(OCc3cccc(Br)c3)cc2)c1
-9.8% | COc1ccc(F)cc1CN1CCN(C(=O)CCC(=O)Nc2nnc(C3CCCCC3)s2)CC1
-9.8% | Cc1ccc(C)c(/C=C(\C(=O)O)c2ccc(S(=O)(=O)N3CCCCC3)s2)c1
-4.7% | CCN(CC)S(=O)(=O)c1ccc(C)c(NC(=S)Nc2cccc(S(=O)(=O)N3CCCCCC3)c2)c1
-4.3% | Cc1cc(C)n(-c2ccc3nnc(C)n3n2)n1
-1.6% | Cc1ccccc1NC(=O)Cn1c(CCC(=O)O)ccc1-c1cccs1

Shown as a hit in VDR inhibitor (from the list above):
VDR inhibitor | structure
15.8µM* | NC(=O)c1cc[n+](CC2=C(C(=O)[O-])N3C(=O)[C@@H](NC(=O)Cc4cccs4)[C@@H]3SC2)cc1

Continuation:
VDR inhibitor | structure
-13.3% | CCOc1ccc(OCC)c(NC(=O)CCCN2C(=O)c3cccnc3C2=O)c1
-14.9% | CS(=O)(=O)N(Cc1ccccc1)c1ccc(C(=O)NCCSCc2ccco2)cc1
14.7% | COc1ccc(NC(=O)N2CCc3c(sc4c3CCCC4)C2c2ccc(F)cc2)cc1 (centres undefined)
-14.6% | CCCn1c(SC2C(=O)CC(C)(C)CC2=O)nc2c1c(=O)n(C)c(=O)n2C
8.7% | Cc1c(N/C=C/C(=O)c2ccc(Cl)cc2)c(=O)n(-c2ccccc2)n1C
13.9% | CC(C)OP(=O)(OC(C)C)C1(O)C(=O)Nc2ccccc21 (centres undefined)
-4.5% | Cc1noc(C)c1C(=O)N1CCC2(CCCN(Cc3ccc(C#N)cc3)C2)CC1
11.4% | NC(=O)CC(NC(=O)Cc1ccc(Cl)cc1)c1ccc(N2CCN(c3ccccn3)CC2)c([N+](=O)[O-])c1 (centres undefined)

Laid out differently: 3 of the compounds above.
SMILES	VDR inhibitor
CCc1c(C(=O)NC2CCCCC2)[nH]c(C)c1C(C)=O	-10.0%
CCN(CC(=O)Nc1c(F)cccc1F)C(=O)c1ccc(S(=O)(=O)NCc2ccco2)cc1	-11.9%
O=C(Nc1ccccc1F)NC1CCCCCCC1	7.2%

(listing goes on)
VDR inhibitor | structure
-13.3% | Cc1ccc(-n2c(-c3ccc(Cl)cc3)n[nH]c2=S)c(C)c1
9.7% | Cc1nc(N2CCN(C(=O)c3ccco3)CC2)[nH]c(=O)c1C
-4.2% | CN1CCN(c2ccc(NC(=O)c3ccc4c(c3)[nH]c(=O)n4Cc3ccc(F)cc3)cc2)CC1
4.6% | CCCCN(CCCC)S(=O)(=O)c1ccc2oc(C(=O)NCc3ccc(C)cc3)c(C)c2c1
-5.0% | CCN(c1ccccc1)S(=O)(=O)c1ccc(OC)c(NC(=O)c2ccccc2OC)c1
-1.5% | CN(C)CCCNC(=S)Nc1ccc(Oc2ccccc2)cc1
8.9% | Clc1cc2nc[nH]c2cc1Cl
20.6% | COc1ccc(/C=C/c2nc(C)c(-c3ccccc3)c(=O)[nH]2)cc1OC
-7.9% | Cc1cc([N+](=O)[O-])nn1CCCC(=O)Nc1cc(Cl)ccc1Cl
-0.9% | CCN1CCN(Cc2ccc(OCc3ccccc3)c(OC)c2)CC1
4.7% | Cc1noc(C)c1C(=O)OCC(=O)NCc1ccc(Cl)cc1
2.4% | COc1ccc2cc(CNc3ccc(C)cc3)c(=O)n(CC(=O)Nc3cccc(Cl)c3C)c2c1
-9.7% | Cc1nn(C)c(C(=O)Nc2cccc(CN3CCOCC3)c2)c1Br
-1.1% | O=C(Cc1ccc(Cl)cc1)Nc1cccnc1
7.6% | CN(C)C(C)(C)C#CC(O)(c1ccccc1)c1ccccc1
-7.0% | CCOC(=O)N1CCN(C(c2cccc(OC)c2)c2sc3nc(C)nn3c2O)CC1 (centres undefined)
-18.3% | CCOc1ccc(CCN2C(=S)N([C@@H](CC(C)C)CN3CCCC3CN3C(=S)NC[C@@H]3Cc3ccc(O)cc3)C[C@@H]2Cc2ccc(O)cc2)cc1 (some centres undefined)
-10.6% | CC1=C(C(=O)Nc2ccccc2C(F)(F)F)C(c2sccc2C)NC(=S)N1 (centres undefined)
6.5% | C=C(C)CN(CC)C(=O)CCc1nnc(CCCc2ccccc2)o1
-14.5% | O=C(NCc1ccc2c(c1)OCO2)C(C(=O)c1ccccc1)n1cc(Cl)ccc1=O (centres undefined)
-2.6% | O=C(CSc1nc(Nc2ccccc2)nc(N2CCOCC2)n1)NC1CCCCC1
-9.1% | Cc1ccc(S(=O)(=O)Nc2cc(=O)[nH]c(SCC(=O)Nc3ccccc3Cl)n2)cc1
-4.2% | COc1ccc(-n2cc(CNC3CCC(O)CC3)c(-c3cccc(F)c3)n2)cc1 (centres undefined)
-1.1% | COc1cc(NCc2ccccc2O)c2ncccc2c1
-19.7% | O=C(C1=C[C@@H](c2csc3ccccc23)C[C@@H](OCc2ccc(CO)cc2)O1)N1CCOCC1
6.6% | CCc1cccc(NC(=O)c2cc3c(=O)n(Cc4ccc(OC)cc4)ccc3nc2C)c1
4.0% | CCCOc1ccc(NC(=O)CC2C(=O)N(c3ccc(C)cc3)C(=O)N2C(C)C)cc1 (centres undefined)
-19.0% | O=C(c1cccc(N2CCCC2=O)c1)N1CCOCC1
6.7% | COc1ccc(/C=N/NC(=O)c2cccc(OC(F)(F)C(F)F)c2)c(OC)c1OC
-6.8% | CC(C)(CO)NS(=O)(=O)c1ccc2c(c1)Cc1cc(S(=O)(=O)NC(C)(C)CO)ccc1-2
12.8% | Cc1ccc(NC(=O)c2ccc(OC(=O)c3cc4ccccc4o3)cc2)cc1
-4.5% | CC(C)CC(=O)NCCc1ccncc1
2.8% | Cc1cc(C)n(CC(=O)NC2CCCN(Cc3ccc(Cl)cc3)C2)n1 (centres undefined)
-2.4% | Cc1ccc(Nc2nnc(SCC(=O)NC3CCCc4ccccc43)s2)cc1 (centres undefined)
-7.1% | Cc1ccc(C(=O)N/N=C/c2ccc(S(=O)(=O)O)o2)c(Cl)c1
-6.1% | CCOC(=O)C(C)n1cnc2sc3c(c2c1=O)CCC3 (centres undefined)
-3.4% | COc1ccc(C(=O)NC2CC2)cc1OC1CCN(Cc2ccc(F)cc2F)CC1
8.7% | CC1CC(C)CN(S(=O)(=O)c2ccc(NC(=O)[C@@H]3CCCN3C(=O)c3cccs3)cc2)C1 (some centres undefined)
8.0% | O=C(Nc1ccc2c(c1)OCO2)c1noc2c1CCCCC2
-11.1% | O=C(Nc1ccccc1)N1CCCC(c2nc(-c3cccs3)no2)C1 (centres undefined)
-18.7% | Cc1cccc(N(CC(=O)NC(C)C)C(=O)CCC(=O)Nc2nccs2)c1
-13.2% | Cc1ccc(O)c(N=Nc2nccs2)c1
8.6% | Cc1cc(=O)oc2c3c(cc(OCC(=O)NCCC(=O)N[C@@H](C)C(=O)O)c12)OC(C)(C)CC3
-5.8% | O=S(=O)(NCc1cccs1)c1ccccc1Cl
-7.7% | CC1CCCN(CCC(=O)Nc2ccc(F)c(F)c2)C1 (centres undefined)
? | COCCNCc1ccccc1
15.3% | CCCNC(=O)NC(=O)COC(=O)/C=C/c1cc(Br)ccc1F
-22.8% | COc1ccc(S(=O)(=O)NCc2ccc3c(c2)cc(C)n3C)cc1
13.7% | CCNc1nc(SCCOc2ccccc2)nc(N(C)C)n1
5.9% | COc1ccc(CNc2cc(C)ccc2C)c(OC)c1OC
-20.5% | CNc1snc(C)c1C(=O)OC(C)C(=O)c1ccc(F)cc1 (centres undefined)
-2.7% | COc1ccc(CCN=C(N)NS(=O)(=O)c2ccc(C)c(C)c2)cc1OC
-15.9%&-14.5% | CCCn1c(=O)c2[nH]c(-c3ccc(S(=O)(=O)O)cc3)nc2n(CCC)c1=O
-5.0% | CC(C)(C)OC(=O)N[C@@H](CC(=O)OCc1ccccc1)C(=O)O

This is a subset; count on the stated rates, not on these rows.
